Source: PubChem (National Center for Advancing Translational Sciences (NCATS))
NPR1 antag = Natriuretic polypeptide receptor (hNpr1) antagonism - Primary qHTS | 76,000 compounds, 1.6% hits | HEK293 hNpr1 GloSensor cGMP, ANP-stimulated luminescence | Potency, µM (series often up to 46.3 µM), without a hit: at the top dose activity change, negative = inhibition, actives largely listed as inhibitors | AID 1347048, 2019; active = well fitted inhibition curve with a large enough effect; inconclusive = small, poorly fitted or top-dose-only effect; inactive = no such curve, though single readings can be large or run the other way;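 note: nearly all actives have a fitted effect of over 60% in size; nearly all hits also lower the signal before the agonist is added; a reference antagonist and vehicle were the controls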
Target sequence (P16066 whole entry, looked up): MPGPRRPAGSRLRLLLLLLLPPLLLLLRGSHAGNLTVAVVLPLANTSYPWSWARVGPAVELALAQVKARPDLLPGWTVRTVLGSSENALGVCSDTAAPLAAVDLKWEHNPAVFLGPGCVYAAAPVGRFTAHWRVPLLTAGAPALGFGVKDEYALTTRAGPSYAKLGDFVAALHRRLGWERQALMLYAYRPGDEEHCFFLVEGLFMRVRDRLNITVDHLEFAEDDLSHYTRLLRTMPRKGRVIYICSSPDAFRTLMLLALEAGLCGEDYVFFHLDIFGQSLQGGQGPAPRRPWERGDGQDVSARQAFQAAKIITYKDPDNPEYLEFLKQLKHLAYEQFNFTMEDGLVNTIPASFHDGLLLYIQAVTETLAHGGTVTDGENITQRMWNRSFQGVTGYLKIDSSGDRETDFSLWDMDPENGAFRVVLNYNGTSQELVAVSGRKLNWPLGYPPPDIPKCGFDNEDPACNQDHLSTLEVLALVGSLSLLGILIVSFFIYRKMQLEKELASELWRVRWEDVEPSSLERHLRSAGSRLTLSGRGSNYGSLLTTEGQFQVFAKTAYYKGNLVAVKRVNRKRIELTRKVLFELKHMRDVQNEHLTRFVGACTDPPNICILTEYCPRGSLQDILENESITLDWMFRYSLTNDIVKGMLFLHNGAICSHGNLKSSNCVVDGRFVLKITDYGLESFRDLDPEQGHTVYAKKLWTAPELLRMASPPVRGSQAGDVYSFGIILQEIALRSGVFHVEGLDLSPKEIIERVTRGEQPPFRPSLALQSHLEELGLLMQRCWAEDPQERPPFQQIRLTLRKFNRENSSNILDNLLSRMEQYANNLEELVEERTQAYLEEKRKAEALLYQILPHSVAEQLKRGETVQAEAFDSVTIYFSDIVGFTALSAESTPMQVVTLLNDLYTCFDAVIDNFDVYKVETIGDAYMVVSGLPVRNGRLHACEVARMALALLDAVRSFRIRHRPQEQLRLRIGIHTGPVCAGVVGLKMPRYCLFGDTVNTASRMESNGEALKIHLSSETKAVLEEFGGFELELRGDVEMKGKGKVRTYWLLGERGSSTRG
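HEK293 cells stably expressing human Npr1 and cGMP GloSensor pGS-40F, loaded 2 h with 2% GloSensor reagent, given compound 30 min at room temperature. Luminescence read before and 20 min after 0.1 nM hNppA.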
The depositor's hits bear a star; ? = inconclusive; [ ] = dose if it differs, or a comment. % is set by controls: 0 for no effect and ±100 for the full control effect; potency is the fitted concentration of half-maximal effect. Only part of the results is shown, so the mix of outcomes need not match the whole.

SMILES	NPR1 antag
COc1cccc(CN2CCNc3cnc(-c4ccccc4)cc3C2)c1	-16%[70.6 µM]
COC[C@H]1CCCN1C(=O)C[C@@H]1O[C@H](CNC(=O)Nc2ccccc2)[C@@H](O)[C@H]1O	?
NCC(=O)N1CCC(n2nccc2NC(=O)c2ccccc2)CC1	3%
c1cnc2c(c1)ncn2C1CC1	13%[122 µM]
O=C(CN1CCCc2nc(C3CC3)ncc2C1=O)NCc1cccs1	-1%
CO[C@H]1C(=O)N(C2CCN(C(=O)CCn3cccn3)CC2)[C@H]1c1ccncc1	6%
O=C(CC1CCOCC1)NCCc1ccccn1	8%
CNC(=O)N1CCC(C2CCN(C(=O)C3CCNCC3)C2)CC1 (stereo unspecified)	16%
CNc1cc(C2CC(NC(=O)CCn3c(C)cccc3=O)C2)nc(N)n1 (stereo unspecified)	0%
COc1ccccc1CN1CC(c2noc(-c3cc(C)cc(C)c3)n2)CC1=O (stereo unspecified)	4%
COCCN1C(=O)CCC2(C(=O)NCc3cn[nH]c3C)CCCC=C12 (stereo unspecified)	4%
O=C(NCc1ccccc1)C1COC2(CCN(C(=O)c3ccco3)CC2)N1C(=O)c1ccco1 (stereo unspecified)	0%
Cc1nc(N2CCC(NC(=O)c3ccccc3F)CC2)cc(C(F)(F)F)n1	-12%
Cc1nonc1CN(C)C(=O)c1coc(COc2ccc(F)cc2Cl)n1	5%
CCc1noc(-c2cn(C3CCN(C(=O)c4cc(C5CC5)[nH]n4)C3)nn2)n1 (stereo unspecified)	-16%
CCOc1ccc(CCNC(=O)Cn2cccc2-c2nc(-c3ccc(F)cc3)no2)cc1OCC	0%
CC(C)CCN1CC2(COCC(=O)N(Cc3cccc(OC(F)(F)F)c3)C2)C1	-10%[70.6 µM]
COc1ccc(-c2noc(CC3CCN(C(=O)c4ccc(OC)nc4OC)CC3)n2)cc1	4µM*
CC(=O)N1CCCN(Cc2ccc3c(c2)OCO3)c2ccccc21	4%
COc1ccccc1-n1cc(-c2ccnc(N3CC(n4cccn4)C3)n2)cn1	-1%
COc1cccc(NC(=O)O[C@@H]2CO[C@H]3[C@@H]2OC[C@@H]3Nc2nccc(-c3ccc(-c4ccccc4)cc3)n2)c1	-6%
CC1(C)C(=O)N(Cc2ccccc2F)[C@H]2CN(Cc3ccc4[nH]ccc4c3)C[C@@H]2[S+]1(=O)[O-]	1%
Cc1ccc(C)c(CNC(=O)CCc2conc2-c2ccc(F)cc2)c1	-12%
COc1ccc(C(=O)N[C@@H]2CCC[C@@H]2C(=O)NCCCOC(C)C)cn1	8%
O=C(NCc1ccccn1)c1ccc2c(c1)N(C(=O)c1ccc(F)cc1)CC2	-2%
Cn1cnnc1-c1nn(C)c2c1CN(C(=O)c1n[nH]c(=O)c3ccccc13)CC2	2%
COC[C@@H](N)C(=O)N1C[C@@H]2C[C@H]1C(=O)N2c1cc(-c2ccccc2)ccc1OC	3%
CCn1ncc(C(=O)N2CCCn3ccnc3C2c2cnn(C)c2)c1C (stereo unspecified)	0%
Cc1cccc(CC2(NC(=O)C3CC(=O)N(C4CCCC4)C3)CC2)c1 (stereo unspecified)	4%
COc1ccc(-c2cc3c(=O)n(CCNC(=O)c4ccccc4C)ccn3n2)cc1	-15%
O=C(NCCN1CCCCC1)c1ccc(-c2ccc(N3CCSCC3)nc2)cc1	-21%
O=C(Nc1cccc(Cl)c1)N1CCC(Oc2ncccc2C(=O)N2CCOCC2)C1 (stereo unspecified)	-6%
CN1C(=O)CS(=O)(=O)C12CCN(C(=O)c1ccnn1C)CC2	-12%
CNC(=O)[C@@H](C1CCCCC1)N1CCC[C@H]1C(=O)N1CCN(C)CC1	-13%[70.6 µM]
Cc1cc(C(=O)N2CCC(O)(c3ccccc3)[C@H](N3CCCC3)C2)n[nH]1 (stereo partly specified)	-1%
Cc1cccc(-n2nc(C)c(CCC(=O)N3CCSCC3)c2Oc2ccccc2C)c1	-16%
C[C@H]1[C@@H]2[C@@H](O)C([C@H](C)C(=O)NCc3ccccn3)CC[C@@]2(C)CC[C@@H]1NC(=O)Cc1ccccc1 (stereo partly specified)	0%
CC(=O)Nc1ccc(CN(C)C2CCc3ccccc32)cc1 (stereo unspecified)	0%[70.6 µM]
Cc1ccc2nc(C(=O)N(C)Cc3cc(-c4cccnc4)no3)cn2c1	?
COc1ccc(CCNC(=O)CCc2nnc(-c3cccc(OC(C)C)c3)[nH]c2=O)cc1	-8%
O=[S+]([O-])(NCC1CN(Cc2cccc(Cl)c2)CC12CN(c1ccccc1)C2)c1ccccc1 (stereo unspecified)	-8%
Cc1noc(C)c1CO[C@@H]1COCC[C@H]1NC(=O)c1cccc(=O)[nH]1	4%
COc1nc2c(cc1CNC(=O)CC1CC1)C(=O)N(CCc1ccccn1)C2	2%
CCOc1ccc(CC(=O)Nc2cccn3nc(C)nc23)cc1	5%
CC(C)c1nc2cc(C(=O)N3CCCC(c4ccccc4)C3)ccc2o1 (stereo unspecified)	8%
O=C(CN1CCCc2nc(-c3ccncc3)ncc2C1=O)NCCN1CCOCC1	-21%
CN(CCC(N)=O)Cc1ccccc1OCC(O)CN1CCc2ccccc2C1 (stereo unspecified)	4%
CN(Cc1cn(-c2ccccc2)nn1)C1CCSCC1	-4%
COCC1CN(C2CCC2)CC12CCN(C(=O)Cn1cccn1)CC2 (stereo unspecified)	-4%
CC(C)(O)CCc1cccc(C(=O)N2CC=C(c3ccc(F)cc3)CC2)c1	?
COc1ccccc1CCC(=O)N1C[C@@H](CO)[C@H](N(C)C)C1	7%
CC1=C[C@@H](CNC(=O)NC2CCCCC2)[C@H](C(C)C)C[C@H]1Cc1nc2c(C)cccc2[nH]1	3%
Cc1ccc(C2Cn3nnc(C(=O)N4CCN(C(=O)Cc5cccs5)CC4)c3CO2)cc1 (stereo unspecified)	-23%
COCC(=O)NC1CCC12CCN(C(=O)c1cnc(C)cn1)CC2 (stereo unspecified)	-1%
Cn1nccc1C(=O)N1CCCC(c2nn[nH]n2)C1 (stereo unspecified)	2%
CN(C)CCN(C)CC[C@H]1CN(C(=O)c2ccc(F)cc2)CC[C@H]1CC(=O)O	4%[70.6 µM]
O=C(O)CCc1conc1-c1cccc(F)c1	-5%
Cn1nc(CC2CCN(c3cc(N)ncn3)CC2)n(-c2ccccc2)c1=O	-2%
CCOC(=O)C1=CN(CC(=O)Nc2c(C)cc(C)cc2C)S(=O)(=O)N=C1C	11µM*
COC(=O)CCNC(=O)C1CN(S(=O)(=O)c2cccs2)CC12CCCCC2 (stereo unspecified)	5%

The listing continues.
SMILES	NPR1 antag
COCc1noc([C@@H]2CN(C(=O)CCc3nc4ccccc4[nH]3)C[C@H]2C(N)=O)n1	0%
CCc1cccc(NC(=O)Cn2c(=O)c(-c3noc(C)n3)c3n(c2=O)CCCCC3)c1	0%
CC1(C)[C@H](Cc2cc(-c3ccccc3)on2)C[C@@H]1NS(C)(=O)=O	?
CN(C)C[C@@H]1CN(Cc2ccccn2)C[C@H]1NS(=O)(=O)c1cccc(F)c1	3%
COc1ccc(S(=O)(=O)N2CCC(OC3CCN(C)CC3)CC2)cc1	-8%
N#Cc1cccc(CN[C@H]2[C@H](O)[C@H](O)C[C@@H]2c2ccc(N3CCOCC3)nc2)c1	5%[70.6 µM]
CCN1C(=O)CCN(Cc2ccc(C)c(C)c2)CC12CCOCC2	3%
CC(C)c1nc2c(c(-c3ccc(O)cc3)n1)CCN(C(=O)c1cccc(Cl)c1)CC2	0%
O=C(c1ccccc1F)N1CCn2c(nnc2C2CCCNC2)C1 (stereo unspecified)	0%[70.6 µM]
Cc1noc([C@@H]2CN(C(=O)Cc3c[nH]c4ccccc34)C[C@H]2CO)n1	-1%
CCc1noc(-c2cccn3c(CNC(=O)c4ccc(C)c(F)c4)nnc23)n1	-5%
O=C1CC2(CCN(Cc3ccccc3)CC2)Oc2ccccc21	-18%[70.6 µM]
COc1ccc(-c2nc3cc(C)ccc3cc2CN2CCN(C(C)=O)CC2)cc1	-2%
COc1ccc(C(=O)N[C@@H]2CN(C(=O)NC(C)C)CCC[C@H]2O)cc1	-4%[70.6 µM]
Cc1noc(-c2ccn3c(CNC(=O)c4cccc5[nH]ccc45)nnc3c2)n1	2%
Cn1ncc(N2CCCC(CC(=O)O)C2)cc1=O (stereo unspecified)	1%
COC[C@@H]1CN(C(=O)c2ccncc2)C[C@H]1c1ccncc1	0%
COc1ccc(-c2ccnc(N[C@H]3CO[C@H]4[C@@H]3OC[C@@H]4NC(=O)c3ccc4c(c3)OCO4)n2)cc1	?
CC1(C)[C@H](Cc2cc(CC3CCCCC3)on2)C[C@@H]1NC(=O)c1ccco1	?
CN(C)C[C@@H]1CN(C2CCOCC2)C[C@H]1NC(=O)c1ccc2c(c1)OCO2	5%
CCN1CCN(C(=O)CC2Sc3ncccc3N(CC)C2=O)CC1 (stereo unspecified)	9%
Cc1noc([C@@H]2CNC[C@H]2C(=O)N2CC=C(c3ccccc3)CC2)n1	1%
N#Cc1ccc(O[C@@H]2CCOC[C@H]2NC(=O)c2nnc3n2CCCCC3)cc1	-1%
Cc1nccn1CCCC(=O)N1C[C@@H](F)C[C@H]1CNC(=O)CC(C)C	-2%
COC(C)(C)C(=O)N[C@H]1CN(Cc2cccc(C#N)c2)C[C@@H]1C(C)C	0%
CC(=O)NC[C@@H]1C=C(C)[C@H](Cc2nc3ccccc3[nH]2)C[C@H]1C(C)C	-21%[70.6 µM]
O=C(Nc1ccccc1F)N1CCCCCC1c1nc(-c2cccnc2)no1 (stereo unspecified)	-11%
CCc1ccc(C(=O)N2CCC(C3CCN(S(C)(=O)=O)CC3)C2)cc1 (stereo unspecified)	-2%
CC(C)CN1C(=O)c2cccn2CC1CNC(=O)c1ccccc1 (stereo unspecified)	1%
NC(=O)CNC(=O)[C@@]1(O)C[C@@H](O)[C@H](O)[C@@H](NC(=O)c2ccc(F)c(Cl)c2)C1	-1%[70.6 µM]
c1csc(-c2[nH]ncc2CNC2CCC3(CCNCC3)CC2)c1	-2%
COc1cc(C)c2c(c1C)C[C@H](C(C)C(=O)NCc1ccco1)CC2 (stereo partly specified)	-3%[70.6 µM]
CCNC(=O)c1ccc(OC2CCN(C(=O)c3ccnn3C)C2)nc1 (stereo unspecified)	-2%
COCC(=O)N(C)C1CCOc2ccccc21 (stereo unspecified)	48%[activator][70.6 µM]
COCCN1C(=O)[C@H]2CN(Cc3cccc(C#N)c3)C[C@H]2C1=O	1%
COC(=O)N(C)Cc1ccccc1C(F)(F)F	0%[70.6 µM]

Part of the list above in order of molar mass, largest number first.
SMILES	NPR1 antag
N#Cc1ccc(O[C@@H]2CCOC[C@H]2NC(=O)c2nnc3n2CCCCC3)cc1	-1%
CN(C)C[C@@H]1CN(C2CCOCC2)C[C@H]1NC(=O)c1ccc2c(c1)OCO2	5%
CC1(C)[C@H](Cc2cc(CC3CCCCC3)on2)C[C@@H]1NC(=O)c1ccco1	?
CCc1ccc(C(=O)N2CCC(C3CCN(S(C)(=O)=O)CC3)C2)cc1 (stereo unspecified)	-2%
Cc1nccn1CCCC(=O)N1C[C@@H](F)C[C@H]1CNC(=O)CC(C)C	-2%
CCN1CCN(C(=O)CC2Sc3ncccc3N(CC)C2=O)CC1 (stereo unspecified)	9%
CCNC(=O)c1ccc(OC2CCN(C(=O)c3ccnn3C)C2)nc1 (stereo unspecified)	-2%
COc1cc(C)c2c(c1C)C[C@H](C(C)C(=O)NCc1ccco1)CC2 (stereo partly specified)	-3%[70.6 µM]
CC(=O)NC[C@@H]1C=C(C)[C@H](Cc2nc3ccccc3[nH]2)C[C@H]1C(C)C	-21%[70.6 µM]
Cc1noc([C@@H]2CNC[C@H]2C(=O)N2CC=C(c3ccccc3)CC2)n1	1%
c1csc(-c2[nH]ncc2CNC2CCC3(CCNCC3)CC2)c1	-2%
CC(C)CN1C(=O)c2cccn2CC1CNC(=O)c1ccccc1 (stereo unspecified)	1%
COCCN1C(=O)[C@H]2CN(Cc3cccc(C#N)c3)C[C@H]2C1=O	1%
COC(=O)N(C)Cc1ccccc1C(F)(F)F	0%[70.6 µM]
COCC(=O)N(C)C1CCOc2ccccc21 (stereo unspecified)	48%[activator][70.6 µM]

Next part.
SMILES	NPR1 antag
CC1(C(=O)N2C[C@@H](Oc3cccnc3)C[C@H]2C(=O)N2CCCC2)CCCCC1	3%
Cc1nn(-c2ccc(C(C)C)cc2)c(C)c1[C@@H]1C=C[C@@H](NC(=O)CC2(CC(=O)O)CCCC2)C1	-1%
Cc1nc(-c2cn(C3CCCN(C(=O)c4ccccc4)C3)nn2)no1 (stereo unspecified)	3%
CCCNC(=O)Cc1ccc(N(Cc2ccccc2)C(=O)c2ccco2)cc1	-1%
CNC(=O)[C@@H]1CN(S(=O)(=O)c2cccnc2)C[C@H]1C1CCN(C)CC1	13%
OC1CCCN(c2ccc(-c3nc(-c4cccc(C(F)(F)F)c4)no3)cn2)C1 (stereo unspecified)	10µM*
COc1ccc(Cl)cc1C(=O)N1CCCN(c2cc(-c3ccc(C)c(C)c3)[nH]n2)CC1	-20%
CN(Cc1ccc(-c2ccccc2)cc1)Cc1ccsc1	2%[70.6 µM]
Cc1cnc(C(=O)N2CCCC(c3nc(C4CCOCC4)no3)C2)cn1 (stereo unspecified)	15%
COCC(=O)N1CCn2c(nn(-c3ccc(F)cc3)c2=O)C1	-6%[70.6 µM]
CC(C)COc1cc(=O)n2c(c1C(=O)NCCCN1CCCCC1)CCCCC2	0%
